VACV Venus inh – inhibitors of vaccinia virus (Venus reporter) | actives 0.46% (n = 330,000) | Vaccinia virus Venus reporter expression, fluorescence | AID 720580 | Potency, µM (top dose mostly 36.5 µM), inactives show at the top dose activity change, negative = inhibition, hits mostly inhibitors; active means well fitted inhibition curve with a large enough effect; inconclusive means small, poorly fitted or top-dose-only effect; inactive means no such curve, though single readings can be large or run the other way; tested in A549 cells; note: nearly all actives have a fitted effect of over 30% in size; inactives centre near -10
Vaccinia mCherry – inhibitors of vaccinia virus infection (mCherry reporter signal); Vaccinia virus mCherry reporter infection, fluorescence; about a quarter of the inactives have no number; Potency, µM (doses to about 36.5 µM), inactives show at the top dose activity change, negative = inhibition, most hits filed as inhibitors; actives 0.63% (n = 310,000); AID 720579; active = well fitted inhibition curve with a large enough effect; inconclusive = small, poorly fitted or top-dose-only effect; inactive = no such curve, though single readings can be large or run the other way; tested in A549 cells; note: nearly all actives have a fitted effect of over 35% in size; inactives centre near -10
Numbers without * were called inactive; i = inactive; ? = inconclusive; / = not tested or not shown; & = joins results of further samples; [ ] = dose if it differs, or a comment. % is set by controls: 0 for no effect and ±100 for the full control effect; potency is the fitted concentration of half-maximal effect. No enrichment for hits; 0.88% or so of the library scored in one or more.

SMILES	VACV Venus inh	Vaccinia mCherry
COc1cc(C(=O)NC2CCCC2)c(Br)c(OC)c1OC	-3.9%	i
O/N=C1/CCCCC1c1ccccn1 (centres undefined)	-5.9%	/
O=C(NCc1ccccc1)c1ccc2c(c1)C(=O)N(Cc1ccncc1)C2=O	-10.0%	-13.9%
C#CCN(C)[C@H](C)Cc1ccccc1	-17.5%	-1.5%
CCn1cc(CN2CCN(Cc3ccccc3)C(CCO)C2)c2ccccc21 (centres undefined)	-8.8%	-6.1%
Cc1cc(Cl)ccc1NC(=S)NCCN1CCOCC1	-6.5%	-0.1%
O=c1c2ccccc2ncn1-c1ccc2c(c1)OCCO2	-14.1%	-13.2%
CCOC(=O)C1=C(COC(=O)COc2ccc(C#N)cc2)NC(=O)NC1C (centres undefined)	-3.8%	-11.2%
Cc1c(C(=O)NC(C(C)C)C(C)C)cccc1[N+](=O)[O-]	2.9%	-2.3%
Cc1ccc(C(=O)/C=C/c2cn(CC(O)CN3CCOCC3)c3ccccc23)cc1 (centres undefined)	-27.8%	-14.9%
O=C(c1ccc(Sc2ccc(F)cc2)c([N+](=O)[O-])c1)N1CCOCC1	-8.2%	i
CN(C)/C=C/C(=O)c1cccc(C(F)(F)F)c1	-11.5%	-12.7%
COC(=O)c1cc(NC(=O)Cc2ccccc2[N+](=O)[O-])ccc1Cl	-10.2%	i
CC(C)Cc1cc(C(=O)NCc2ccco2)no1	1.3%	5.3%
O=C(CSc1ncn[nH]1)N1CCN(S(=O)(=O)c2ccccc2)CC1	-10.5%	-7.4%[1.46 µM]
CCN(CC)P(=O)(Nc1ccc([N+](=O)[O-])cc1)c1c(C)nn(CCC#N)c1NC(=O)c1ccc(Cl)cc1 (centres undefined)	3.9%	i
CCOC(=O)c1ccc(-c2ccc(CO)o2)cc1	?	-14.3%
Cc1ccc(-n2nc(C(=O)N(C)c3ccccc3Cl)c3c4ccccc4n(C)c3c2=O)cc1	-6.4%	-13.2%
CCn1cc(C(=O)N2CCc3ccccc32)c(=O)c2cc(S(=O)(=O)N3CCOCC3)ccc21	-5.1%	-6.0%
COc1ccccc1C(=O)Nc1ccccc1OCc1cc(=O)n2ccccc2n1	3.8%	-14.1%
CCC(=O)N/C(N)=N/c1nc(C)c2cc(C)c(C)cc2n1	?	?
O=C(Nc1nnc(SCc2ccc(F)cc2)s1)c1ccccn1	?	?
O=C(NC1CCCC1)C1CCN(C(=O)c2ccc(Cl)cc2)CC1	14.2%	-7.8%
CC(=O)c1sc(NC(=O)c2c(F)cccc2F)nc1-c1ccccc1	-18.0%	i
Cc1cccc(NC(=O)c2nc[nH]c2C(=O)NCc2ccccc2)c1	?	-15.8%
S=C(NCCN1CCOCC1)Nc1ccc(Br)cc1	-15.4%	i
O=C1COc2cc(S(=O)(=O)CCC(=O)N3CCN(c4cccc(Cl)c4)CC3)c(Cl)cc2N1	-4.0%	-14.1%
c1ccc2c(c1)ccn2CCCN1CCCCC1	-4.9%	-15.8%
Cc1ccc(S(=O)(=O)n2nc(-c3ccco3)nc2SCc2ccccc2)cc1	-9.0%	-17.6%
O=C(CN1CCCCC1)Nc1ccc(S(=O)(=O)NC2CCCCC2)cc1	-15.1%	-21.0%
CCc1ccc2c(CN3CCN(S(=O)(=O)c4ccccc4F)CC3)cc(=O)oc2c1	-11.0%	-14.2%
COc1ccc(C#Cc2c(C=O)n(C)c3ccccc23)cc1	?	?
O=C(c1ccccc1)n1nc(-c2ccccc2)nc1NCc1ccco1	-6.0%	-24.3%
CC(=O)C1=C(c2ccc(Br)cc2)C(=O)c2ccccc2C1=O	5.7%	-15.3%
CCCCc1cc(=O)oc2c(C)c(OCC(=O)N3C[C@H]4C[C@@H](C3)c3cccc(=O)n3C4)ccc12	3.0%	17.3%
CNC(=O)COC(=O)c1cccnc1SC	-15.4%	/

Complete entries as entered above. Order of values: VACV Venus inh | Vaccinia mCherry
`O=C(CN1CCCCC1)Nc1ccc(S(=O)(=O)NC2CCCCC2)cc1` as listed: -15.1% | -21.0%
`CC(=O)C1=C(c2ccc(Br)cc2)C(=O)c2ccccc2C1=O` as listed: 5.7% | -15.3%
`Cc1ccc(S(=O)(=O)n2nc(-c3ccco3)nc2SCc2ccccc2)cc1` as listed: -9.0% | -17.6%
`O=C(c1ccccc1)n1nc(-c2ccccc2)nc1NCc1ccco1` as listed: -6.0% | -24.3%
`O=C1COc2cc(S(=O)(=O)CCC(=O)N3CCN(c4cccc(Cl)c4)CC3)c(Cl)cc2N1` as listed: -4.0% | -14.1%

Additional compounds follow.
SMILES	VACV Venus inh	Vaccinia mCherry
N#Cc1cc(F)c(N2CCNCC2)cc1Cl	4.5%	-13.5%
COc1ccc(C)c2sc(NC(=O)c3ccc(S(=O)(=O)N4CCOCC4)cc3)nc12	-11.6%	-12.6%
Cc1nn(CCO)c2ncc(C(=O)c3cc(F)ccc3O)cc12	6.1%	4.1%
CN(C)C(=O)c1ccc(NC(=O)COc2ccc([N+](=O)[O-])cc2)cc1	-18.7%	-1.4%
Cc1cc(C)cc(NC(=O)Cc2csc(COc3cccc(C)c3)n2)c1	-7.0%	-9.5%
COc1ccc(-c2cnc3c(c2)C(=O)N([C@H](C)CO)C[C@@H](C)[C@H](CN(C)Cc2ccccc2)O3)cc1	-17.0%	i
Cc1c(C(=O)N2CCCCC2CCN2CCCC2=O)oc2c(F)cccc12 (centres undefined)	-16.3%	i
O=C(c1ccoc1)N1CCC(CO)(CCc2ccccc2)CC1	-11.7%	-4.1%
Cc1ccc(-c2cc(C(=O)NCc3ccccn3)c3ccccc3n2)cc1C	-10.1%	-5.4%
C=CCN(CC=C)Cc1cc(=O)oc2cc(C)c(Cl)cc12	4.3%	4.5%
O=C(Nc1cccc(O)c1)c1cccc(S(=O)(=O)N2CCCCCC2)c1	-28.5%	35.3%[activator]
COc1cccc(C(=O)N2CCCC(Nc3ccc(C)c(C)c3)C2)c1 (centres undefined)	-10.7%	?

New compounds follow:
Order of results: VACV Venus inh, Vaccinia mCherry
> COc1ccccc1NS(=O)(=O)c1ccccc1C#N
    -15.8%, -3.6%
> COc1cccc(-n2c(=O)c3c4c(sc3n(Cc3ccccc3C#N)c2=O)CCCC4)c1
    2.4%, -6.0%
> CCOC(=O)c1sc(C)c2c1NC(C)(c1cccs1)NC2=O (centres undefined)
    -25.6%, -7.6%
> C#CCOCCOCCOCCNc1nc(N2CCOCC2)nc(N2CCN(C(=O)[C@H](CCCN=C(N)N)n3cc(C(N)[C@@H](C)CC)nn3)CC2)n1 (some centres undefined)
    -3.1%, -2.1%
> CCN(NC(=O)C(O)(c1ccccc1)c1ccccc1)C(=O)c1ccccc1
    -3.6%, i
> Oc1ccc(/C=N/NC(=S)N/N=C/c2ccc(O)cc2)cc1
    -3.9%, ?
> CCN(CC)C(=O)CSc1nnc2nnc3cc(C)ccc3n12
    11.0%, -12.6%
> CCN(CC)S(=O)(=O)c1cc(NC(=O)c2cccc(N3C(=O)CCC3=O)c2)ccc1Cl
    -4.3%, -17.3%
> COc1ccccc1CN1CCC(CNC(=O)c2cnn(-c3ccccc3Cl)c2C2CCN(C(=O)OC(C)(C)C)CC2)CC1
    -23.6%, i
> Cc1cc(C(=O)CN2CCC(C)CC2)c(C)n1-c1ccccc1F
    -13.4%, -16.3%
> COc1ccc(C2=NN(c3nc(C)cc(C)n3)C(=O)C2)cc1
    -10.0%, -14.5%
> COC(=O)c1cccc(NC(=O)CSc2nnc(COc3cccc(C)c3)n2C)c1
    -11.3%, /
> COC(=O)[C@]12CCCCC=C1N(Cc1ccccc1)C(=O)[C@H](CC(=O)N1CCCC1)C2
    7.7%, 14.8%
> O=C(COC(=O)c1cccc(Br)c1)Nc1ccc2[nH]c(=O)[nH]c2c1
    -3.1%, -10.9%
> COc1ccc(-c2cc(C(F)(F)F)nc(SCC(=O)N3CCOCC3)n2)cc1OC
    -7.9%, /
> Cc1nnc(Cl)c2nn(-c3ccccc3)c(C)c12
    -6.3%, -19.8%
> NC(=O)N/N=C/C=C/c1ccccc1
    -17.7%, -3.3%
> NC(=O)C1(N2CCCCC2)CCN(C(=O)c2cccn3c(=O)c4cc(Cl)ccc4nc23)CC1
    -23.5%, -18.0%
> Cc1cccc(NC(=O)c2c(-c3ccccc3)noc2C)n1
    7.8%, -3.1%
> CN1CCN(c2ccc([N+](=O)[O-])c(N)c2)CC1
    -4.5%, -8.3%
> CC(Oc1ccc(Cl)cc1Cl)C(=O)NC(Cc1ccccc1)C(=O)O (centres undefined)
    5.5%, i
> CCOc1ccc(-n2nnc3c(=O)n(CC(=O)N4CCCc5ccccc54)cnc32)cc1
    -13.5%, -16.8%
> CC1CN2c3ccc([N+](=O)[O-])cc3CC3(C(=O)N(C)C(=O)N(C)C3=O)C2C(C)O1 (centres undefined)
    13.1%, i
> CC(C)(C)CC(C)(C)c1ccc(O)c(Cc2ccc(Cl)cc2Cl)c1
    ?, ?
> O=C(Cn1cnc2c(cnn2-c2ccc(Cl)cc2)c1=O)N1CCN(c2ccccc2)CC1
    -7.3%, -1.9%
> O=C(NCC(c1ccco1)N1CCN(c2ccccc2F)CC1)C(=O)NC1CCCC1 (centres undefined)
    -4.8%, -8.0%
> COc1ccc(NC(=O)CN(C)C(=O)Cc2ccc3c(c2)OCCO3)cc1
    -13.9%, -9.5%
> Fc1ccccc1CNCC1CCCO1 (centres undefined)
    -11.0%, -22.4%
> O=C(CSc1nc(=O)[nH]c2c1CCCC2)NCc1ccccc1
    -4.6%[7.34 µM], -0.3%[7.34 µM]
> COc1ccc(N=C2C(=Nc3ccc(OC)cc3)N(c3ccc(N(C)C)cc3)C(=S)N2c2ccc(OC)cc2)cc1
    -5.7%, -5.2%
> Cc1cc(C)c(C(=O)COC(=O)c2cccnc2Cl)c(C)c1
    3.6%, i
> O=C(O)C(CO)(c1ccccc1)c1ccccc1
    -4.0%, -13.2%
> COc1ccc(S(=O)(=O)Cc2ccc(C(=O)N3CCCC3)o2)cc1
    -2.7%, 4.5%
> Nc1cc(N2CCOCC2)c(Cl)cc1[N+](=O)[O-]
    -15.3%, -2.3%
> O=C(COC(=O)CCC(=O)c1ccccc1)NCCc1ccccc1
    -10.7%, -8.4%
> CC(C)(C)C(=O)COC(=O)CCc1nc2ccccc2[nH]c1=O
    -16.4%, i
> Cc1c2cnn(CC(=O)N3CCOCC3)c(=O)c2c(C)n1Cc1ccccc1F
    -9.4%, i
> Cc1cc(NC(=O)CSc2nc3cc(C(=O)NCCCOC(C)C)ccc3c(=O)n2Cc2ccco2)no1
    -16.2%, -14.0%
> Cc1cc(C(=O)N2CCN(c3cc(Cl)ccc3C)CC2)on1
    -15.5%, i
> Clc1cccc(-c2cc3nc4c(c(N5CCN(c6cnccn6)CC5)n3n2)CCCC4)c1
    -28.0%, /
> CCCn1cc(S(=O)(=O)c2cc(C)ccc2C)c(=O)c2cc(F)c(N3CCCCCC3)cc21
    ?, ?
> CCOc1ccc(CN(C)Cc2cc(=O)oc3cc(C)c(Cl)cc23)cc1
    -3.9%, i
> Cc1ccc(OCCCC(=O)Nc2ccc(N3CCOCC3)cc2)c(C)c1
    -16.0%, /
> CCOC(=O)C1CCCN(C(=O)c2ccc(C)c(NC(=O)c3nsc4ccccc34)c2)C1 (centres undefined)
    -4.1%, -4.9%
> CCSc1nc2c(c(=O)[nH]1)C(c1cccnc1)C(C(=O)OC(C)C)=C(C)N2 (centres undefined)
    -9.2%, -19.9%
> CCn1c(C(C)NC(=O)c2ccc(OC)c(OC)c2)nc2ccccc21 (centres undefined)
    -8.1%, -6.0%
> CN(CCc1cnn(C)c1)Cc1cn[nH]c1-c1ccc(-c2ccccc2)cc1
    -2.4%, -23.3%
> Cc1cccc(C)c1Nc1c(-c2ccc(N3CCOCC3)cc2)nc2ncccn12
    -11.6%&-5.9%, -10.5%&24.6%
> CC(C)c1ccc(S(=O)(=O)N2CCC(C(=O)N3CCC3)CC2)cc1
    -13.7%, -15.6%
> COc1ccc(C(=O)COC(=O)CCC(=O)Nc2ccc(C(C)=O)cc2)cc1
    -9.0%, -13.0%
> CCOC(=O)c1[nH]c(C)c(/C(C)=N\O)c1C
    -4.1%, i
> Cc1onc(-c2ccccc2Cl)c1C(=O)N1CC(C)CC(C)C1 (centres undefined)
    4.9%, -14.2%
> Cc1noc(C)c1NC(=O)Nc1cccc2c1O[C@H](CN(C)C(=O)NC1CCCCC1)[C@@H](C)CN([C@H](C)CO)C2=O
    -9.5%, i
> Cc1nn(C(=O)c2cccc([N+](=O)[O-])c2)c(C)c1Br
    -13.3%, ?
> O=C(CN1C(=O)c2ccccc2C1=O)Nc1cccnc1
    -14.7%, -23.1%[1.46 µM]
> COc1cc(CCC(=O)OCC(=O)NCC2CCCCC2)cc(OC)c1OC
    1.1%, 10.3%
> COc1ccc(S(=O)(=O)N2CCOC2CNC(=O)C(=O)NCCN2CCOCC2)cc1 (centres undefined)
    2.4%, i
> Cc1ccc(CCNC(=O)C2CCC(=O)N2C(C)C)cc1 (centres undefined)
    -6.4%, i
> CN1CCC(OC(=O)c2cccc(Cl)c2)CC1
    6.7%, -0.3%
> Cc1oc(-c2cccc(Cl)c2)[n+]([O-])c1C
    -11.5%, -14.4%
> CCC(=O)NC(=S)N1CCN(c2ccc([N+](=O)[O-])cc2Cl)CC1
    -21.0%, -10.7%
> Cc1ccccc1NC(=O)CSc1nc(-c2ccco2)nc2cc(=O)[nH]n12
    -9.6%, -15.7%
> Cc1cc(C#N)c2ccccc2n1
    -9.7%, /

Screening data from PubChem BioAssay.
